Calb FLC = affects C. albicans growth with fluconazole. C. albicans CaCi-2 (fluconazole-resistant clinical isolate) + fluconazole, Alamar Blue growth, 48 h. growth inhibition, % (test concentration not listed). 300,000 compounds, 0.57% hits. AID 1979;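 active means most replicates above 75%; inconclusive means exactly half above 75%; inactive means most below 75%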;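 further: all wells also contain fluconazole at 8 µg/ml as a sub-toxic cotreatment; 0% = median of DMSO wells and 100% = median of geldanamycin control wells; wells of about 8 µL received 7.5 nL stock; the first replicate is given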
LANA-H2B inh = blocks KSHV LANA binding to histone H2A/H2B | Q9QR71 | cell-free LANA-H2A/H2B peptide, fluorescence polarization | inhibition, % (concentration not given with the values) | 320,000 compounds, 0.6% hits | AID 2629; in the data active means inhibition mostly above about 10%, no sharp cut-off; inactive means mostly below about 6.7%;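 further: stock transfer was 7.5 nL into about 10 µL; 0% = median of vehicle wells and 100% = median of positive control wells; one replicate is shown; the record names a cut of 25% in any replicate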
Beta cell apopt = blocks beta cell apoptosis; protection from apoptosis, % (no concentration beside the values); 300,000 compounds, 0.8% hits; INS-1E cytokine-induced death, ATP luminescence, 48 h; percent of positive-control rescue, neutral wells zero;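 active means all replicates at 75% or more, or half of them and the mean; inconclusive means half reach 75% but not the mean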;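 further: 0% = cytokine-treated negative control wells and 100% = positive control rescue; higher means more ATP so stronger rescue from cytokine killing; wells of about 40 µL received 100 nL stock; the first replicate is given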
Beta2AR agonist = activates human beta-2 adrenergic receptor causing internalization; 340,000 compounds, 0.43% hits; Am2.2-beta2AR cells, FAP receptor internalization, flow cytometry; reference of the scale not given here; P07550; response, % (no concentration beside the values);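 active means response above a set limit, near 3 SD of response in nonfluorescent compounds, cut at about 42% in these data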;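 further: stock transfer was 100 nL into about 11 µL; a reference agonist was the positive control; negative values mostly stem from fluorescent compounds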
Target sequence (P07550 whole entry, looked up): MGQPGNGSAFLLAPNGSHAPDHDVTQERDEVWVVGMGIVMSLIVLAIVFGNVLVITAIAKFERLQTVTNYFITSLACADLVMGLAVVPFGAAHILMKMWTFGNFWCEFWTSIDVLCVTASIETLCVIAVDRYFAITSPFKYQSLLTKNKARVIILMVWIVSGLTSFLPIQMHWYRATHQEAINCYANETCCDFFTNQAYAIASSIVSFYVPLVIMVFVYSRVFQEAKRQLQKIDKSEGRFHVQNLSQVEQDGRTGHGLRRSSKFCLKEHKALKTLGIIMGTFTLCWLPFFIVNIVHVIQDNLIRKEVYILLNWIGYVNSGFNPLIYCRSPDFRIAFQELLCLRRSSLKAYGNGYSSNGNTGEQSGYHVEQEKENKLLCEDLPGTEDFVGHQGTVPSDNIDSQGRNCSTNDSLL
ALR H2O2 inh = blocks human ALR sulfhydryl oxidase activity. AID 485317. 290,000 compounds, 3.8% hits. purified ALR, DTT oxidation, H2O2 HRP-luminol luminescence. P55789. inhibition, % (test concentration not listed);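 active means mean and each replicate at 75% or more; inconclusive means only one of the two met; inactive means neither met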;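 further: stock transfer was 7.5 nL into about 7.5 µL; 0% = neutral wells and 100% = wells with inactivated enzyme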
Target sequence (P55789 whole entry, looked up): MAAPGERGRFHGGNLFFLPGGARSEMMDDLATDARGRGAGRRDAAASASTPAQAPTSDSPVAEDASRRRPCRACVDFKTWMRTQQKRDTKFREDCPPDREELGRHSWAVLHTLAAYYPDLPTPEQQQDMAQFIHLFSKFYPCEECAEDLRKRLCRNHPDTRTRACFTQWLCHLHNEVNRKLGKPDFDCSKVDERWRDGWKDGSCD
Bfl-1 A1 inh = inhibitors of the anti-apoptotic protein A1, read as caspase activation. MEF A1-2A-BIM cells, Caspase-Glo 3/7 luminescence, 3 h; percent of clofoctol response, vehicle zero. caspase activation, % (no concentration beside the values). 330,000 compounds, 0.066% hits;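 active means over half of replicate activation scores above 10%, or exactly half above 10 with the replicate mean above 10; inconclusive means replicate mean below 10 yet half the replicates above 10; inactive means over half of replicates below 10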;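 further: wells of about 30 µL received 50 nL stock; many hits fall short of the cut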
Ecoli rRNA inh = inhibits bacterial ribosomal RNA function over humanized ribosomes. E. coli WT GFP vs humanized-ribosome RFP mutants, fluorescence, 24 h; stronger effect = lower value; DMSO median 0, no signal -100. 350,000 compounds, 1.6% hits. GFP signal change (wild-type ribosome), % (test concentration not listed). AID 720706;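 active means significant combined selectivity score with lowered wild-type GFP, culture density cut under 30%, mutant RFP and density less affected; inactive means any of these conditions unmet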; further: one replicate is shown; some compounds called inactive have numbers as strong as hits
T cruzi inh = T. cruzi replication inhibition. T. cruzi beta-gal in NIH3T3, luminescence, 90 h. inhibition, % (no concentration beside the values). 300,000 compounds, 1.4% hits;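 active means mean inhibition across valid replicates above about 55%, limit read from the data; inconclusive means mean below that limit but half or more replicates reach it; inactive means mean below it, under half of replicates reach it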;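 further: signal also drops with host cell toxicity which is not excluded here; 0% = plate median of DMSO wells and 100% = zero luminescence signal; higher percent means less beta-gal luminescence so fewer parasites; stock transfer was 50 nL into about 50 µL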
Ecoli rRNA inh OD600 = also measured in Ecoli rRNA inh; calls as there; OD600 change, %; measured here: OD600 growth;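 optical density of the mix in the first replicate; 0 = DMSO median and -100 = no signal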
Ecoli rRNA inh RFP = also measured in Ecoli rRNA inh; calls as there; RFP signal change, %; measured here: RFP humanized mutant strains;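 first replicate; 0 = DMSO median and -100 = no signal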
* hit, by the source's call; ? = inconclusive; . = not tested or not shown. Only part of the results is shown; count on the stated rates, not on these rows.

SMILES	Calb FLC	LANA-H2B inh	Beta cell apopt	Beta2AR agonist	ALR H2O2 inh	Bfl-1 A1 inh	Ecoli rRNA inh	Ecoli rRNA inh OD600	Ecoli rRNA inh RFP	T cruzi inh
O=C(NNC(=S)NCC1CCCO1)c1cccc(S(=O)(=O)N2CCOCC2)c1 (stereo not drawn)	5	4.4	4	2	25	0.9	11	7	1.7	-2
CCOC(=O)c1oc2ccccc2c1CN1CCN(C)CC1	-4	2.5	0	4	-5	0.2	.	.	.	18
COc1ccc(S(=O)(=O)Cc2ccc(C(=O)NC(C)C)o2)cc1	4	5.3	0	3	.	-0.3	6	6	-0.3	-11
CCOC(=O)c1c(C)[nH]c(C)c1S(=O)(=O)N(C)Cc1ccco1	-5	0.5	-4	5	-1	-1.3	1	4	0.5	-9
Cc1ccc(C(=O)NCCCNCCCNC(=O)c2ccc(C)nc2)cn1	4	2.0	2	-6	-2	0.6	.	.	.	-2
COc1ccc(OC)c(-c2[nH]nc3c2C(c2ccco2)C(C#N)=C(N)O3)c1 (stereo not drawn)	-4	-3.3	-2	7	31	1.2	.	.	.	-8
O=C(Nc1ccc(Cl)cc1)c1cncs1	-6	-0.8	.	-4	2	0.2	2	8	-5.5	-2
CC(=O)Nc1cccc(C(=O)OCC(=O)Nc2c(C)nn(-c3ccccc3)c2C)c1	-1	-2.7	-3	-4	21	0.2	6	14	6.3	1
N/C(Cn1cncn1)=N\OC(=O)c1ccc(Cl)cc1Cl	0	3.3	-1	-6	-2	-0.1	.	.	.	0
Cc1nn(-c2ccccc2)nc1CNC(=O)CC(C)(C)C	-20	-0.7	-1	-5	-3	-0.1	10	-6	1.6	.
C#CCOC(=O)C1C2C=CC(C2)C1C(=O)O (stereo not drawn)	7	0.8	0	4	-5	0.8	8	7	-4.6	6
CC1=CCC2C(=O)N(c3ccc(C(=O)Nc4ccccc4Cl)cc3)C(=O)C2C1 (stereo not drawn)	10	-2.1	-2	1	.	0.9	-16	-18	-0.6	0
O=C(c1ccnc(Cl)c1)N1CCCC(N2CCN(c3ccccc3F)CC2)C1 (stereo not drawn)	-1	3.3	-3	4	1	0.7	-2	-7	-4.3	-5
C=CCn1cc(C(=O)NCCOC)c(=O)c2cc(S(=O)(=O)N3CCCCCC3)ccc21	2	0.9	7	1	-2	0.4	-5	-2	0.9	2
COc1ccc(C2=NO[C@@H]3C(=O)N(c4c(C)cccc4C)C(=O)[C@H]23)cc1OC	4	-4.5	-8	-1	-33	0.7	.	.	.	-9
COc1nccc(-c2ccc(F)cc2)c1C#N	-15	3.4	-4	15	-14	0.4	-2	-1	-2.8	3
Cc1nc2cc(Cl)c([N+](=O)[O-])cc2s1	-5	5.1	2	12	-4	1.7	1	2	-0.8	6
Cc1ccc(S(=O)(=O)CCC(=O)OCC(=O)c2ccc(F)cc2)cc1	2	-3.9	-4	7	-2	-0.2	11	16	0.8	-17
Cn1ccnc1SCC(=O)c1ccc(F)cc1	-4	-4.4	-9	-2	15	-0.7	13	-2	4.5	-15
CC(C)(C)c1ccc(C(=O)N2CCN(CCNC(=O)C(=O)NCc3ccccc3)CC2)cc1	?	3.7	-4	-1	-6	0.0	.	.	.	-1
COc1ccc([C@H]2[C@@H](C#N)[C@H](C#N)N3CCCN23)cc1	-7	2.6	-4	9	6	0.5	.	.	.	0
COC(=O)c1c(C)[nH]c(C=Nc2ccc(OC)cc2)c1C	-1	0.3	-6	4	-10	-0.5	5	1	0.3	18
COc1ccc(NC(=O)c2cc3ccccc3[nH]2)cc1	8	-4.9	3	-10	-7	-3.1	18	19	3.0	6
Cc1cc(NC(=O)COc2ccccc2C)ccc1NC(=O)c1ccco1	-1	-4.1	1	-21	.	-2.7	-6	1	0.7	0
CSc1nnc(CCCCCNC(=O)OC(C)(C)C)o1	5	-0.3	-5	1	.	0.4	7	2	0.1	-8
COCCNC(=O)Cn1nc(-c2ccccc2F)ccc1=O	-1	.	.	2	.	.	19	10	2.5	-3
Cn1c(=O)c2c(O)c(Cc3ccccc3)c(=O)[nH]c2n(C)c1=O	26	-1.2	0	4	5	-4.0	-1	6	0.4	0
CN(CC(=O)Nc1ccccc1Br)C(=O)c1ccc(-c2ccc(Cl)cc2)o1	-4	-1.5	-6	0	-4	0.6	4	4	1.5	12
Cc1nc2cc(NC(=O)Nc3cccc(F)c3)ccc2n1C	5	-1.0	-1	-11	-8	-12	-2	0	-7.7	1
O=C(CN1C(=O)/C(=C/c2ccccc2F)Sc2ccccc21)N1CCN(c2ccccn2)CC1	-3	-0.3	2	-1	-2	-0.2	-5	-2	1.3	18
C=CCn1c(=O)c(C(=O)NC(C)c2ccccc2)c(O)c2ccccc21 (stereo not drawn)	9	-2.0	0	-4	-18	0.3	4	-11	-0.3	-3
CC(=O)c1cccc(OCC(=O)c2cc(C)n(-c3cc(C)on3)c2C)c1	-41	1.8	-12	-3	-5	1.9	-9	-4	-6.1	7
O=C1c2ccccc2NC(c2ccccc2)N1Cc1ccco1 (stereo not drawn)	-6	3.5	-2	-13	.	0.1	.	.	.	7
O=C(CSc1ccc2nnc(-c3ccccc3)n2n1)NCC1CCCO1 (stereo not drawn)	0	-1.8	-3	-3	-3	0.6	.	.	.	-15
Cc1[nH]c2ccccc2c1C(=O)C(=O)N1CC(C)OC(C)C1 (stereo not drawn)	-1	-0.3	-2	0	2	0.8	3	6	-0.2	1
Cn1cnnc1SCC(=O)Nc1ccc(Cl)c(S(=O)(=O)N2CCOCC2)c1	-1	4.7	0	2	-5	-0.4	12	17	5.2	-6
CC(C)CN(C(=O)COC(=O)CSc1ccccc1F)c1c(N)n(Cc2ccccc2)c(=O)[nH]c1=O	5	0.4	-6	-2	0	-0.4	9	11	0.7	1
Oc1cccc2c3c(oc12)CCCC3	24	1.1	.	-5	-1	-0.7	-12	-28	-3.7	0
Cc1ccc(C)c(N2CCN(c3cnn(-c4nc5ccccc5s4)c(=O)c3Cl)CC2)c1	30	-5.1	-9	-6	-1	-2.2	.	.	.	-12
COc1ccc(NC(=O)CNS(=O)(=O)c2cccc3nonc23)c(OC)c1	4	0.9	.	5	-45	0.4	.	.	.	-4
CC(=O)c1ccc(NC(=S)N2c3ccccc3CC2C)cc1 (stereo not drawn)	1	-12	-3	9	-3	1.1	-9	-5	8.9	2
O=C(COC(=O)CNC(=O)c1ccccc1)Nc1ccc(Cl)cn1	.	0.2	-2	-2	12	-0.4	7	6	4.2	.
COc1cc(CCC(=O)N2CCN(c3ccc([N+](=O)[O-])cc3)CC2)cc(OC)c1OC	0	3.0	-1	6	-34	0.2	8	22	1.3	11
CSc1ccc(C#N)cc1NC(=O)c1ccccc1C	-3	1.2	2	0	-8	0.6	8	4	-0.8	-10
CCC(C)Sc1nc2c(c(=O)[nH]c(=O)n2C)n1Cc1ccccc1Cl (stereo not drawn)	10	-1.7	8	12	15	0.1	7	1	-2.2	29
Cc1sc2ncnc(N3CCC(C(=O)Nc4ccc(F)cc4Cl)CC3)c2c1C	.	-0.6	-2	19	1	-1.2	-14	-24	0.8	.
Cn1c(=O)c2c(ncn2CCOc2ccc(Br)cc2)n(C)c1=O	-4	-6.0	9	-10	-3	0.3	3	4	0.0	0
Cc1c(C(=O)NCc2ccco2)oc2c(Cl)cccc12	.	-1.4	7	5	-2	-0.1	1	5	-1.8	.
c1csc(COc2ccccc2CNC2CCCCC2)c1	3	-1.8	10	0	-6	-1.1	.	.	.	-16
COc1ccc(NC(=S)N2CCC(NC(=O)c3ccccc3C)CC2)cc1	-18	-0.7	0	-7	2	-0.1	5	11	-3.4	-1
O=C(O)c1cc(Br)ccc1NS(=O)(=O)c1cccc2nsnc12	16	-4.1	-4	0	0	-0.2	-1	-8	4.2	-11
COc1ccccc1-n1c(=O)c(C#N)c(-c2ccc([N+](=O)[O-])cc2)c2cc(C(=O)c3ccccc3O)cnc21	-1	-5.6	6	7	-14	-0.2	7	-2	0.9	19
Cc1nn2c(-n3ccnc3)c3c(nc2c1-c1ccccc1)CCC3	20	-1.0	-6	-10	-5	0.6	.	.	.	7
CCOC(=O)C1=CCC2c3c(c4ccccc4n3C)C(=O)C1N2C(=O)OC(C)(C)C (stereo not drawn)	.	-1.0	-3	-3	-2	1.1	-1	-12	-5.1	.
CC(C)(C)N(Cc1ccccc1)C(=O)COc1cccnc1[N+](=O)[O-]	-3	-0.7	-9	-1	.	0.3	-1	-8	-1.0	16

Quoted from the results shown (10 entries):
SMILES	Calb FLC	LANA-H2B inh	Beta cell apopt	Beta2AR agonist	ALR H2O2 inh	Bfl-1 A1 inh	Ecoli rRNA inh	Ecoli rRNA inh OD600	Ecoli rRNA inh RFP	T cruzi inh
O=C(NNC(=S)NCC1CCCO1)c1cccc(S(=O)(=O)N2CCOCC2)c1 (stereo not drawn)	5	4.4	4	2	25	0.9	11	7	1.7	-2
CCOC(=O)c1oc2ccccc2c1CN1CCN(C)CC1	-4	2.5	0	4	-5	0.2	.	.	.	18
COc1ccc(S(=O)(=O)Cc2ccc(C(=O)NC(C)C)o2)cc1	4	5.3	0	3	.	-0.3	6	6	-0.3	-11
CCOC(=O)c1c(C)[nH]c(C)c1S(=O)(=O)N(C)Cc1ccco1	-5	0.5	-4	5	-1	-1.3	1	4	0.5	-9
Cc1ccc(C(=O)NCCCNCCCNC(=O)c2ccc(C)nc2)cn1	4	2.0	2	-6	-2	0.6	.	.	.	-2
COc1ccc(OC)c(-c2[nH]nc3c2C(c2ccco2)C(C#N)=C(N)O3)c1 (stereo not drawn)	-4	-3.3	-2	7	31	1.2	.	.	.	-8
O=C(Nc1ccc(Cl)cc1)c1cncs1	-6	-0.8	.	-4	2	0.2	2	8	-5.5	-2
CC(=O)Nc1cccc(C(=O)OCC(=O)Nc2c(C)nn(-c3ccccc3)c2C)c1	-1	-2.7	-3	-4	21	0.2	6	14	6.3	1
N/C(Cn1cncn1)=N\OC(=O)c1ccc(Cl)cc1Cl	0	3.3	-1	-6	-2	-0.1	.	.	.	0
Cc1nn(-c2ccccc2)nc1CNC(=O)CC(C)(C)C	-20	-0.7	-1	-5	-3	-0.1	10	-6	1.6	.

Compound activity as filed in PubChem.
